From PubChem
FPRL1 ligand = human FPRL1 ligands by binding competition, primary screen, cell-based, FPR counter-screen, flow cytometry; FPRL1-expressing cells, fluorescent ligand binding inhibition; inhibition, %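 (tested at 6.7 µM)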; 0.3% of 24,000 active; AID 441, 2006;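 also: 0% = buffer alone and 100% = receptor blocker peptide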
Target sequence (P25090 whole entry, looked up): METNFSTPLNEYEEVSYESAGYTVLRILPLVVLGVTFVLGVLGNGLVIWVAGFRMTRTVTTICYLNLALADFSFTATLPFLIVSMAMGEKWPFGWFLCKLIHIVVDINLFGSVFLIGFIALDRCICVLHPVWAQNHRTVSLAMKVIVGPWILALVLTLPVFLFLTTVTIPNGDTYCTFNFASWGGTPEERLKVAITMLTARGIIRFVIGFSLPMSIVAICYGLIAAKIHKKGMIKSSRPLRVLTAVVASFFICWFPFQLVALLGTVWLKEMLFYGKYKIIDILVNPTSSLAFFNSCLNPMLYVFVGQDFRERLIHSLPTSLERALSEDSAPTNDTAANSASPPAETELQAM
VCAM-1 down imaging = inhibitors of TNFa-induced VCAM-1 surface display, imaging, high-content imaging, pooled HUVEC, TNFa stimulus (AID 456); HUVEC TNFa-induced VCAM-1 surface expression, immunofluorescence imaging; numbers were filed only for top-ranked candidate wells; inhibition, % at 5 µM; hits with a dose series show IC50 in µM; 0.2% of 10,000 active;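 active = top tenth filtered wells with inhibition above zero that passed visual or statistical confirmation; inactive = the rest, including hits rejected on review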;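 also: 0% = stimulated vehicle wells and 100% = unstimulated cells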
VCAM-1 down = inhibitors of TNFa-induced VCAM-1 surface display, cell-based, plate reader, pooled HUVEC, TNFa stimulus (AID 454). HUVEC TNFa-induced VCAM-1 surface immunofluorescence, plate reader; numbers were filed only for top-ranked candidate wells. inhibition, % at 5 µM. 0.2% of 10,000 active;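 active = compound among top-ranked inhibitors of TNF-induced VCAM-1 adhesion protein staining, with the hit upheld by image or statistical review; inactive = the rest, including hits rejected on review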;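 also: 0% = TNFa with vehicle and 100% = cells without TNFa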
FPR binder = human FPR ligands by binding competition, primary screen, cell-based, FPRL1 counter-screen, flow cytometry; 0.74% of 24,000 active; FPR-expressing cells, fluorescent ligand binding; AID 440, 2006; inhibition, %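 (tested at 6.7 µM)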; fMet-Leu-Phe receptor (Homo sapiens), P21462;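 also: 0% = buffer wells and 100% = receptor blocker peptide wells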
Target sequence (P21462 whole entry, looked up): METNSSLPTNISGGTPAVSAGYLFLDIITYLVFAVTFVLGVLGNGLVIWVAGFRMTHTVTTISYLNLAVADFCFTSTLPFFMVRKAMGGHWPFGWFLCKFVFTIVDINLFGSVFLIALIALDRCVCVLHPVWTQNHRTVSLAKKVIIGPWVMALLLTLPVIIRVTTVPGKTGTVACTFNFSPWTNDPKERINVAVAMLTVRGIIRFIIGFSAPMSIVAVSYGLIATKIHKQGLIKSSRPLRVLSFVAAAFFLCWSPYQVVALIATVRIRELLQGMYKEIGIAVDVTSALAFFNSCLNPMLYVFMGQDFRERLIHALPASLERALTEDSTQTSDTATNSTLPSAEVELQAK
VCAM-1 up imaging = enhancers of VCAM-1 display on endothelial cells, imaging, high-content imaging, pooled HUVEC, TNFa stimulus (AID 457). calls only. Pooled HUVEC, TNFa-induced VCAM-1 immunofluorescence imaging; hits of this screen are not shown here. 0.2% of 10,000 active;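 active = a top-ranked rise in VCAM-1 staining upheld on image or statistical review; inactive = the rest, including candidates rejected on review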;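 also: compounds tested at 5 µM in the well; cells exposed to compound for 24 hours before fixing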
* hit, by the source's call; i = inactive; / = not tested or not shown.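 The calls were made as follows, unless noted: active = mean above 30%; inconclusive = self-fluorescent; inactive = the rest.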 Only part of the results is shown; count on the stated rates, not on these rows.

SMILES	FPRL1 ligand	VCAM-1 down imaging	VCAM-1 down	FPR binder	VCAM-1 up imaging
O=C(C1CCCN1S(=O)(=O)c1cccc2cccnc12)N1CCn2c1nc1ccccc12 (stereo unspecified)	1.3	i	i	-5.2	i
CCOC(=O)c1c(NC(=O)OC)sc2c1CCC2	-2.9	i	i	2.7	i
O=C(CCN1CCCCC1)Nn1c(=S)[nH]c2ccccc2c1=O	-3.7	/	/	-7.9	/
COC(=O)c1cc(Br)ccc1-c1ccc(/C=N/n2nnnc2N)o1	-5.5	i	i	1.7	i
CCOc1ccccc1N(CC)C(=O)Cn1ncc2c(=O)oc3ccccc3c21	3.1	/	/	5.3	/
Cc1nc2sc(C(c3cccc(F)c3)N3CCCC(C)C3)c(O)n2n1 (stereo unspecified)	-5.0	/	/	-1.8	/
CC(C)C[C@H](NC(=O)[C@@H]1O[C@H]1C(=O)O)C(=O)NCCCCN=C(N)N	-4.1	i	i	4.6	i
COc1ccc(/C(O)=C2\C(=O)C(=O)N(CCN(C)C)C2c2cccc(OC)c2OC)cc1 (stereo unspecified)	-12.8	/	/	-17.3	/
COc1ccc(OC)c(NC(=O)C23CCC(C)(C(=O)C2)C3(C)C)c1 (stereo unspecified)	-1.0	i	i	-5.2	i
CCS(=O)(=O)N1CCC(C(=O)NCc2cccc(OC)c2)CC1	-12.7	/	/	-8.4	/
Cc1ccc(C2/C(=C(\O)c3cnn(-c4ccccc4)c3C)C(=O)C(=O)N2CCN(C)C)o1 (stereo unspecified)	0.5	/	/	0.9	/
COc1ccc(C(=O)Nc2c3c(nn2-c2cccc(Cl)c2)CS(=O)C3)cc1 (stereo unspecified)	-5.9	/	/	1.8	/
Cc1c(C(=O)N2CCOCC2)sc2nc(-c3ccccc3)cn12	0.4	/	/	-2.2	/
CC(C)c1cc(CN2CCN(CCC#N)CC2)cc(C(C)C)c1O	0.6	/	/	-3.7	/
O=C(c1cccc(C(=O)N2CCN(c3ccccc3)CC2)c1)N1CCN(c2ccccc2)CC1	-2.0	i	i	1.2	i
C1=CC2CC1CC2CN1CCN(c2ccccc2)CC1 (stereo unspecified)	-2.2	i	i	0.4	i
CCOC(=O)c1cc(-c2ccco2)nc2c1c(C)nn2CCC#N	3.7	i	i	1.9	i
CCc1ccc(Nc2cc(=O)n(C3CCCCC3)c(=O)[nH]2)cc1	9.8	i	i	4.2	i
Cc1cccc(C2N(c3ccc(F)cc3)C(=O)C3CCCN32)c1 (stereo unspecified)	4.1	/	/	-1.4	/
CCn1c(N2CCC(C)CC2)nc2c1c(=O)n(C)c(=O)n2C	-12.1	/	/	-3.1	/
O=C(Cn1nc(Cc2cccnc2)c2ccccc2c1=O)N1CCN(c2ccccn2)CC1	8.8	/	/	3.4	/
COc1ccc(CCNC(=O)CCn2c(SCC#N)nc3ccccc3c2=O)cc1OC	5.9	/	/	9.1	/
COc1ccc(CNC(=O)C2CC(c3ccc(OC)cc3)=NO2)cc1 (stereo unspecified)	1.4	/	/	2.3	/
COC(=O)c1ccccc1S(=O)(=O)N(Cc1cc2cc3c(cc2[nH]c1=O)OCO3)C1CCCCC1	-3.8	i	i	-10.1	i
Cc1ccc(C(=O)CSc2nnc(-c3cccnc3)n2N)cc1	-10.9	i	i	-22.5	i

Overlap with the part before: seven entries, followed by the next part.
SMILES	FPRL1 ligand	VCAM-1 down imaging	VCAM-1 down	FPR binder	VCAM-1 up imaging
Cc1cccc(C2N(c3ccc(F)cc3)C(=O)C3CCCN32)c1 (stereo unspecified)	4.1	/	/	-1.4	/
CCn1c(N2CCC(C)CC2)nc2c1c(=O)n(C)c(=O)n2C	-12.1	/	/	-3.1	/
O=C(Cn1nc(Cc2cccnc2)c2ccccc2c1=O)N1CCN(c2ccccn2)CC1	8.8	/	/	3.4	/
COc1ccc(CCNC(=O)CCn2c(SCC#N)nc3ccccc3c2=O)cc1OC	5.9	/	/	9.1	/
COc1ccc(CNC(=O)C2CC(c3ccc(OC)cc3)=NO2)cc1 (stereo unspecified)	1.4	/	/	2.3	/
COC(=O)c1ccccc1S(=O)(=O)N(Cc1cc2cc3c(cc2[nH]c1=O)OCO3)C1CCCCC1	-3.8	i	i	-10.1	i
Cc1ccc(C(=O)CSc2nnc(-c3cccnc3)n2N)cc1	-10.9	i	i	-22.5	i
Cc1cc(=O)n(C)c(=O)n1CC(=O)N1CCCCCC1	0.6	/	/	-1.4	/
Cc1noc(C(=O)Nc2c(C)nn(Cc3ccccc3)c2C)c1Cl	-2.6	/	/	-3.8	/
Cc1[nH]c2c(C)cccc2c(=O)c1Br	1.5	i	i	-0.9	i
c1ccc2c(c1)CCCN2c1nc2ccccc2n2cnnc12	-5.5	/	/	-5.8	/
CC(C)COC(=O)C(C#N)c1nc2ccccc2nc1N1CCN(Cc2ccccc2)CC1 (stereo unspecified)	-3.8	i	i	2.3	i
COc1ccc(C2C(C#N)=C(N)Oc3cc4c(cc32)OCO4)cc1 (stereo unspecified)	-4.0	i	i	8.0	i
Cn1c(=O)c(C(=O)Nc2cccnc2)c(O)c2ccccc21	-1.0	i	i	2.3	i
O=C(NCc1ccccn1)Nc1cccc(NC(=O)NCc2ccccn2)c1	-9.4	/	/	-1.3	/
CC(NC(=O)C1CCC(=O)N1Cc1ccc(F)cc1)c1ccc2c(c1)OCCO2 (stereo unspecified)	9.4	/	/	11.0	/
Cc1ccc(-c2nc3cc(NC(=O)C(C)C)ccc3o2)cc1	-1.5	i	i	2.9	i
COc1ccc(-n2c(Cn3c(=O)sc4ccccc43)nnc2SCC(=O)N2CCOCC2)cc1	-5.4	/	/	1.4	/
COC(=O)c1ccc(N=c2sc(C(=O)OC)cc(=O)n2C)cc1	4.6	/	/	6.3	/
O=C(CCSCc1ccccc1F)N1CCN(c2ccccn2)CC1	-2.9	/	/	2.3	/
O=C(NCc1ccc2c(c1)OCO2)c1ccc(NS(=O)(=O)c2ccc3c(c2)OCCO3)cc1	1.2	i	i	-0.4	i
Cn1c(=O)c2cc(S(=O)(=O)N3CCN(c4cccc(C(F)(F)F)c4)CC3)ccc2n(C)c1=O	3.6	/	/	-3.7	/
CC1CCCN(c2nc3ccsc3c(=O)s2)C1 (stereo unspecified)	-6.5	/	/	-3.3	/
Cc1ccc(S(=O)(=O)N2CCCC2)cc1S(=O)(=O)N1CCCC1	1.1	i	i	-2.1	i
COCCCNC(=O)c1ccc(CS(=O)(=O)Cc2cccc(C)c2)o1	-5.8	/	/	2.4	/
CC(c1ccc(Br)cc1)N1CC23C=CC(O2)C(C(=O)O)C3C1=O (stereo unspecified)	-7.8	/	/	5.3	/
CC(NC(=O)c1ccc(CS(=O)(=O)Cc2ccccc2F)o1)c1ccc2c(c1)OCCO2 (stereo unspecified)	11.1	/	/	5.6	/
CCC(NC(=O)Nc1cc(OC)c(OC)c(OC)c1)(C(F)(F)F)C(F)(F)F	55.2*	i	i	45.4*	i
Cc1nc2ccccc2n1CC(O)Cn1c(C(F)(F)F)nc2ccccc21 (stereo unspecified)	2.9	/	/	2.0	/
CCOCCn1c(CN(Cc2ccccc2)Cc2ccccc2)nc2c1c(=O)[nH]c(=O)n2C	10.6	/	/	6.2	/
Cc1ccccc1CN1CCN(CC(=O)NCc2ccco2)C1=O	-0.9	i	i	-1.1	i
Cn1c2ccccc2c2c(C(=O)N3CCN(c4ccccc4)CC3)cn(C3CCCC3)c(=O)c21	2.9	/	/	6.3	/

Full records, quoted from the list:
Cc1ccccc1CN1CCN(CC(=O)NCc2ccco2)C1=O across the screens: FPRL1 ligand = -0.9; VCAM-1 down imaging = i; VCAM-1 down = i; FPR binder = -1.1; VCAM-1 up imaging = i
COc1ccc(/C(O)=C2\C(=O)C(=O)N(CCN(C)C)C2c2cccc(OC)c2OC)cc1 (stereo unspecified) across the screens: FPRL1 ligand = -12.8; VCAM-1 down imaging = /; VCAM-1 down = /; FPR binder = -17.3; VCAM-1 up imaging = /

Remaining list, next part:
SMILES	FPRL1 ligand	VCAM-1 down imaging	VCAM-1 down	FPR binder	VCAM-1 up imaging
COC(=O)c1cc2ccsc2n1CC(=O)Nc1cc(Cl)ccc1OC	-13.4	/	/	-4.8	/
CCCCN(C)CCNC(=O)Cn1ncc2c(=O)oc3ccc(C)cc3c21	-0.3	/	/	2.3	/
CCC(=O)n1nc(-c2ccco2)nc1N	-13.9	i	i	-18.5	i
COc1cccc(Nc2ncc(C(=O)O)c3ccccc23)c1	2.3	/	/	4.7	/
O=C(c1n[nH]c(=O)c2ccccc12)N1CCN(c2ccccc2)CC1	2.3	/	/	-1.0	/
CCOc1ccccc1CNC(=O)C1CCN(c2nc3ccccc3o2)CC1	6.7	/	/	7.4	/
CCOCCCNS(=O)(=O)c1ccc2c(c1)CCN2C(C)=O	7.1	/	/	3.4	/
Cc1cc(C(=O)N2CC(C)CC(C)C2)n(-c2ccccc2)n1 (stereo unspecified)	-0.4	/	/	-5.5	/
CC1C(=O)CCC1(C(=O)O)c1ccccc1 (stereo unspecified)	5.9	/	/	8.1	/
Cc1cc(NC(=O)c2cc(CC(C)C)on2)no1	-2.9	/	/	1.0	/
Clc1ccccc1OCc1nn2c(-c3ccncc3)nnc2s1	-0.9	i	i	3.7	i
CCN1CCN(CCCNC(=O)c2ccc3c(c2)NC(=O)c2ccccc2S3)CC1	4.3	/	/	-3.6	/
CSCCC(C(=O)Nc1ccc2c(c1)OCO2)N1C(=O)c2ccccc2C1=O (stereo unspecified)	-4.2	i	i	0.8	i
CC(=O)N1CCc2cc(S(=O)(=O)N3CCc4ccccc4C3)ccc21	-1.1	/	/	-1.0	/
CCCS(=O)(=O)N1CCC(C(=O)N2CCN(Cc3ccccc3)CC2)CC1	0.4	/	/	-2.4	/
O=c1n(CCCN2CCN(c3cccc(Cl)c3)CC2)nc2ccccn12	-2.9	i	i	-0.9	i
CCCCc1c(C)nc(N)[nH]c1=O	0.8	/	/	1.1	/
COCCNC(=O)CCCn1c(=O)c2ccccc2n(CC(=O)NCCC2=CCCCC2)c1=O	-6.0	/	/	2.8	/
COC(=O)NCC(c1cccnc1)N1CCN(c2ccccc2OC)CC1 (stereo unspecified)	0.6	/	/	0.0	/
Cc1nc2c(C(=O)NCc3ccco3)cnn2c(C)c1Cc1ccc(F)cc1Cl	-5.3	/	/	3.3	/
Cc1ccc(-c2nnc(-c3cccc(Br)c3)o2)cc1	-8.0	i	i	-0.4	i
O=c1c2ccccc2nc2n1CCC2	-0.4	/	/	-1.3	/
Cc1c(Cc2ccccc2)sc(N)c1C(N)=O	3.1	i	i	1.2	i
C=CC(O)(C#CCN(CC)CC)c1ccccc1 (stereo unspecified)	-1.8	i	i	-3.9	i
O=C(CCCN1C(=O)c2cccnc2C1=O)N1CC(=O)N(CCc2ccccc2)C(=O)C1	-1.5	/	/	-2.8	/

Part of the list above in order of molar mass, largest number first.
SMILES	FPRL1 ligand	VCAM-1 down imaging	VCAM-1 down	FPR binder	VCAM-1 up imaging
O=C(CCCN1C(=O)c2cccnc2C1=O)N1CC(=O)N(CCc2ccccc2)C(=O)C1	-1.5	/	/	-2.8	/
c1ccc2c(c1)CCCN2c1nc2ccccc2n2cnnc12	-5.5	/	/	-5.8	/
Cc1ccc(-c2nc3cc(NC(=O)C(C)C)ccc3o2)cc1	-1.5	i	i	2.9	i
CCOC(=O)c1c(NC(=O)OC)sc2c1CCC2	-2.9	i	i	2.7	i
Cc1[nH]c2c(C)cccc2c(=O)c1Br	1.5	i	i	-0.9	i
C=CC(O)(C#CCN(CC)CC)c1ccccc1 (stereo unspecified)	-1.8	i	i	-3.9	i
CC1C(=O)CCC1(C(=O)O)c1ccccc1 (stereo unspecified)	5.9	/	/	8.1	/

(further entries)
SMILES	FPRL1 ligand	VCAM-1 down imaging	VCAM-1 down	FPR binder	VCAM-1 up imaging
Cc1c(Cl)cccc1NC(=O)Cn1cccc1	-2.6	/	/	-6.0	/
Cc1cc(N2CCOCC2)nc2cc(O)ccc12	-0.2	/	/	-10.6	/
CCCc1cc(C(=O)NCc2ccccc2)no1	4.9	/	/	2.3	/
O=C1Nc2cc(C(=O)N3CCOCC3)ccc2SC1N1CCOCC1 (stereo unspecified)	-10.4	/	/	-2.8	/
COC(=O)CSc1nnc(CNC(=O)c2cccc(C)c2)n1-c1ccccc1OC	-4.8	/	/	2.8	/
O=C(Nc1ccccc1)N1CCn2c(nc3ccccc32)C1	9.8	/	/	-8.9	/
C#CCn1cnc2c(cnn2-c2ccc(C)c(C)c2)c1=O	-0.2	/	/	-1.9	/
CCCCOC(=O)c1ccc(NC(=O)C(CCS(C)(=O)=O)NC(C)=O)cc1 (stereo unspecified)	-1.9	/	/	1.2	/
